KCNQ2 pot: potentiators of rat KCNQ2 potassium channel. AID 2239. O88943. CHO-K1 KCNQ2, FluxOR thallium flux fluorescence; active compounds read high. 310,000 compounds, 0.54% hits. B-score at 10 µM;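 active = fluorescence ratio B-score at least 3 SD of library B-scores, with initial fluorescence B-score within 3 SD, cut at about 5.3 in these data; same plate scores as AID 2156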;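 note: B-score of peak minus minimum over baseline fluorescence ratio after K+ and Tl+ stimulus; positive B-score means potentiation of KCNQ2 with more thallium influx and brighter signal; only the inactives scoring about 0 or higher are listed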
Target sequence (O88943 whole entry, looked up): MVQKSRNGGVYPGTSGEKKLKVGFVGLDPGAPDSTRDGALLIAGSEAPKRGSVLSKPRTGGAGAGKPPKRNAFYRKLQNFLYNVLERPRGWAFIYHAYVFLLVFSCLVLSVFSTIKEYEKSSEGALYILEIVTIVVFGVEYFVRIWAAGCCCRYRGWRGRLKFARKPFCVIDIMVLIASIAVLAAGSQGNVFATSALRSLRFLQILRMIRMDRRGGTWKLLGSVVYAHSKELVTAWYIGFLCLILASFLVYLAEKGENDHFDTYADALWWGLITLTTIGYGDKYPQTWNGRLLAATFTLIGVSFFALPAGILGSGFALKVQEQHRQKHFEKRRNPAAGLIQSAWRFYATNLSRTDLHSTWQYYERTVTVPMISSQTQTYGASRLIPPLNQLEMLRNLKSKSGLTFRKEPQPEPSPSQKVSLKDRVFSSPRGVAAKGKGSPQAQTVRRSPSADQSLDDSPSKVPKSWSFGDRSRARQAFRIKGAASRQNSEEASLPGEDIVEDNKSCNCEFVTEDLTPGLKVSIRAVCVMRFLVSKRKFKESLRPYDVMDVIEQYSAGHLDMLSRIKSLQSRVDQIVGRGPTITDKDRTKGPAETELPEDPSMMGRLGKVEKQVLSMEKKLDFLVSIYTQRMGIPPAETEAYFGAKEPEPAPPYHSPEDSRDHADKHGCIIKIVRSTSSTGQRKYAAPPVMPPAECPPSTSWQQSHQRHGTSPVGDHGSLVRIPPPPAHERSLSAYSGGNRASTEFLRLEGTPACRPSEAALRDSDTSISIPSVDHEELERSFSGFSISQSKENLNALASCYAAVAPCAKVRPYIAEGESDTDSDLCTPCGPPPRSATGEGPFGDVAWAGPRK
KCNQ2 pot baseline: also measured in KCNQ2 pot; calls as there; B-score; compound at 10 µM; measured here: initial fluorescence intensity artifact check;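 brightness before thallium and not channel activity; 0 = typical well and far values either way flag optical interference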
* hit, by the source's call.

SMILES | KCNQ2 pot | KCNQ2 pot baseline
CCCc1ccc(OCc2ccc(C(=O)N3CCCC3)o2)cc1 | 1.2 | 2.4
CN(C)c1ccc(/C=N/NC(=O)c2cccc(N3CCCC3=O)c2)cc1 | 0.68 | -2.3
COc1ccc(NC(=O)CSc2nc3ccccc3nc2N2CCCC2)c(OC)c1 | 0.85 | -0.71
O=C1N[C@@H](Cc2ccccc2)C(=O)N2[C@H]3Nc4ccccc4[C@@]3([C@]34C[C@H]5C(=O)N[C@@H](Cc6ccccc6)C(=O)N5[C@H]3Nc3ccccc34)C[C@@H]12 | 2.2 | 0.03
CCOC(=O)N1CCC(c2cc(=O)n3[nH]ccc3n2)CC1 | 2.4 | 1.4
O=C(Nc1ccccc1)C(Cc1cccs1)c1nn[nH]n1 (configuration not stated) | 1.3 | 0.04
COc1ccc(N2CCN(c3nc(NCCc4ccc(OC)c(OC)c4)nc(OC)n3)CC2)cc1 | 0.7 | 0.96
O=C(NCCCC(=O)N1CCOCC1)c1cccnc1 | 0.33 | 0.61
C=CCn1c(SCc2ccccc2C#N)nnc1-c1ccccc1O | 0.46 | 0.72
O=C(CSc1nc2ccccc2n1CC(=O)N1CCCC1)Nc1nccs1 | 0.56 | -0.02
O=C(CN1C(=O)C2C3CCC(C3)C2C1=O)OCC(=O)c1cccc([N+](=O)[O-])c1 (configuration not stated) | 0.32 | -0.86
CCNc1nc2nonc2nc1NCC | 0.02 | 2
CCOC(=O)C1CCN(C(=O)c2cnn3c(C)cc(C)nc23)CC1 | 0.47 | 0.24
O=C(Nc1cccnc1N1CCOCC1)c1cccs1 | 0.35 | -0.79
CCNc1nc(NCC)nc(SCCOC(=O)c2ccccc2)n1 | 0.15 | 0.07
Nc1cc(N)nc(SCc2cccnc2)n1 | 0.23 | 0.16
COc1ccccc1N1CCN(C(=O)c2cc(-c3ccccc3)on2)CC1 | 0.79 | 0.28
COc1ccc(-c2c(C)oc3c(CN4CCCCC4C)c(O)ccc3c2=O)cc1 (configuration not stated) | 1.7 | 1.3
CCOC(=O)c1cc(C#N)c(N2CCN(C(=O)c3ccccc3)CC2)nc1C(F)(F)F | 0.88 | 1.6
Cn1nc(C(F)(F)F)c2cc(C(=O)Nc3ccc(C(F)(F)F)cc3)sc21 | 2 | -0.84

The list goes on; the last 4 above are carried over.
SMILES | KCNQ2 pot | KCNQ2 pot baseline
COc1ccccc1N1CCN(C(=O)c2cc(-c3ccccc3)on2)CC1 | 0.79 | 0.28
COc1ccc(-c2c(C)oc3c(CN4CCCCC4C)c(O)ccc3c2=O)cc1 (configuration not stated) | 1.7 | 1.3
CCOC(=O)c1cc(C#N)c(N2CCN(C(=O)c3ccccc3)CC2)nc1C(F)(F)F | 0.88 | 1.6
Cn1nc(C(F)(F)F)c2cc(C(=O)Nc3ccc(C(F)(F)F)cc3)sc21 | 2 | -0.84
COCCCNC(=O)C(=O)NCC(c1ccco1)N1CCN(c2ccc(OC)cc2)CC1 (configuration not stated) | 0.64 | -0.01
COc1cccc2sc(N3CCN(C(=O)c4ccco4)CC3)nc12 | 0.36 | -0.37
Cc1ccccc1Cn1nc(C)c(NC(=O)c2cc(-c3cccs3)on2)c1C | 0.55 | -0.01
COc1ccc(C(=O)N/N=C/c2ccc3cccc(OCc4ccccc4)c3n2)cc1 | 3.1 | 0.79
CCCCn1c(=O)c2ccccc2n2c(=S)[nH]nc12 | 1.5 | 1.3
CC(=O)c1ccc([C@H]2C[C@@]34CN(C(=O)OC(C)(C)C)S(=O)(=O)[C@H]3C[C@H]2O4)cc1 | 0.84 | 0.25
N/C(=N\OC(=O)c1ccncc1)c1cccc([N+](=O)[O-])c1 | 1.4 | 0.01
CC(=O)c1c(C)[nH]c(C(=O)Nc2nc(C)cs2)c1C | 0.93 | -1
NCCCC[C@H]1CNC(=S)N1CCc1cc(C(F)(F)F)cc(C(F)(F)F)c1 | 0.73 | -3.1
CCc1ccccc1Nc1nn2c(=O)c3ccc(C(=O)NCc4ccccn4)cc3nc2s1 | 1.5 | 0.49
O=C1CC[C@@H](O)CCN1CC[C@H](Sc1ccccc1)c1ccccc1 | 1.1 | -3.5
COc1ccc(NC(=O)CCNC(=O)Cn2cnc3ccccc3c2=O)c(OC)c1 | 0.6 | -1.1
O=C(NCCNC(=O)c1ccccc1Cl)c1ccco1 | 0.05 | 1.3
O=C(O)CN1C(=O)C(=O)N(Cc2ccccc2F)C1=O | 0.01 | 0.14
CN(Cc1ccc(F)cc1)S(=O)(=O)c1nnc(NC(=O)c2ccccc2Br)s1 | 0.49 | -0.04
NC(=O)CSc1nnc(-c2cc3ccccc3o2)n1Cc1ccccc1 | 1.9 | -2
Cc1cc(C)nc(N2CCCC(C(=O)NCCc3ccc(F)cc3)C2)n1 (configuration not stated) | 0.9 | -0.62
CCC(CC)c1nnc(NC(=O)CSCC(=O)Nc2cc(C)on2)s1 | 2.1 | -0.46
COc1ccccc1CCc1nnc(CCC(=O)N(C)Cc2cccc3ncccc23)o1 | 0.84 | -0.02
COc1ccccc1NC(=O)c1ccc(NC2=NC3CS(=O)(=O)CC3S2)cc1 (configuration not stated) | 0.77 | -0.37
CC1C/C(=N/Nc2nc3ccccc3[nH]2)CC(C)(C)C1 (configuration not stated) | 1.1 | -0.95
O=C(O)CC/C(=C\c1ccc(N2CCCC2)c([N+](=O)[O-])c1)c1nc2ccccc2s1 | 0.08 | -1.5
CC(=O)Nc1ccc2nc(NC(=O)c3ccc([N+](=O)[O-])s3)sc2c1 | 0.55 | 1.1
CCOC(=O)c1nnn2c1nc(N1CCN(c3ccccc3)CC1)c1ccccc12 | 2.5 | 0.42
CC(C)NC(=O)CSc1nc(N)c(-c2ccccc2)c(=O)[nH]1 | 2 | -0.07
CCOc1ccc(N2CC(C(=O)N3CCc4ccccc4C3)CC2=O)cc1 (configuration not stated) | 1.2 | 0.1
CC(CC(=O)Nc1ccccc1C(F)(F)F)c1ccccc1 (configuration not stated) | 0.84 | -0.34
FC(F)(F)c1cc(Cl)c2nnc(-c3ccccn3)n2c1 | 0.02 | -0.29
CCN(CC)S(=O)(=O)c1cc(NC(=O)Cc2ccsc2)ccc1C | 0.84 | 0.06
COc1cccc(CNCCO)c1OCc1ccc(Cl)cc1 | 0.32 | -0.04
CC(CCCC(C)(C)O)NC(=O)c1ccc(OC2CCN(C(=O)C3CC3)CC2)cc1 (configuration not stated) | 0.04 | -0.14
COc1cccc(C(=O)/C=C2\NCCc3cc(OC)c(OC)cc32)c1 | 0.31 | -0.94
CC(C)CC(=O)Nc1ccccc1Oc1ccccc1 | 4.1 | -1.5
COC(=O)CNC(=O)Cn1c(=O)n(Cc2ccc(F)cc2)c(=O)c2sccc21 | 0.67 | -1.6
Cc1cc(C)n2nc(SCc3ccccc3F)nc2n1 | 0.25 | -0.5
CC(=O)Nc1ccc2c(c1)nc(CCN1CCOCC1)n2C | 0.12 | 0.98
Cc1cn2c(=O)c(C(=O)NCc3ccc4c(c3)OCO4)cnc2s1 | 0.13 | -1.2
CCSc1nnc(NC(=O)CSC2=NN3CCCC(=O)N=C3S2)s1 | 0.04 | -0.2
CCOC(=O)N1CCN(S(=O)(=O)/C=C/c2ccccc2)CC1 | 0.73 | 0.74
Cc1cc(C)nc(N(C#N)Cc2ccc(Cl)cc2)n1 | 2 | 2.8
O=C(CN1C(=O)c2ccccc2C1=O)Nc1ccccc1C(=O)N1CCCC1 | 0.05 | -0.48
COc1cc(CNc2ccc3[nH]c(=O)[nH]c3c2)cc(Br)c1OCC(=O)NC(C)(C)C | 0.34 | 0.91
Cc1cccc(C(=O)NCCCNC(=O)c2cccc(C)c2)c1 | 0.07 | -0.04
CC1(C)CC(=O)c2ccc(OCc3ccc([N+](=O)[O-])cc3)cc2O1 | 0.55 | -0.06
O=C(NCC(=O)N1CCN(c2ccccc2O)CC1)c1ccc2c(c1)OCO2 | 0.52 | -0.12
COc1ccc(OCC(=O)Nc2c(Cl)ccc3nsnc23)cc1 | 0.57 | -0.36
O=C(NC(O)C(=O)c1ccccc1)c1ccccn1 (configuration not stated) | 1 | 0.01
C/C(=N\NC(=O)c1nnn(-c2nonc2N)c1-c1ccccc1)c1cccnc1 | 0.05 | 2.3
Cc1c(NC(=O)Cc2noc3ccccc23)cccc1[N+](=O)[O-] | 0.7 | 0.56
Cc1ccc(-c2nnc(SCC(=O)Nc3ccccc3F)o2)cc1 | 0.2 | 0.27
CN(c1ccccc1)S(=O)(=O)c1ccc(Cl)nc1 | 0.66 | -2.5
Cc1cc(OCC(=O)NCc2ccncc2)c2c(C)c(C)c(=O)oc2c1 | 0.51 | 0.48
CCc1nnc(NC(=O)C(=O)NCCOC(=O)c2ccccc2Cl)s1 | 0.81 | -0.65
CCN(CC)C(=O)C(=O)N/N=C/c1ccc(Br)cc1 | 1.8 | 0
COCCn1cc(C(=O)NCCN(C)C)c2c3ccccc3n(C)c2c1=O | 0.5 | 0.02
O=c1[nH]nc(Cc2ccc(-c3ccc(Cl)cc3)o2)c2ccccc12 | 2.6 | 0.11
CCOc1cc(CNn2cnnc2)cc(Br)c1OCC(=O)NC1CCCCC1 | 2.7 | -0.02
Cc1c(NC(=O)C(C)OC(=O)c2c3c(nc4ccccc24)CCC3)c(=O)n(-c2ccccc2)n1C (configuration not stated) | 0.41 | -0.04
O=C(O)CCCNC(=O)c1ccccn1 | 1.3 | -0.48
O=S(=O)(NC1CCCCC1NS(=O)(=O)c1ccc(F)cc1)c1ccc(F)cc1 (configuration not stated) | 0.66 | -1.1

Additional results
SMILES | KCNQ2 pot | KCNQ2 pot baseline
CCOC(=O)c1nc(Nc2ccc(OC)cc2)c2ccccc2n1 | 0.77 | -0.94
CC[C@@H](NS(=O)(=O)c1ccc(C)cc1)C(=O)Oc1ccc2c3c(c(=O)oc2c1)CCC3 | 0.64 | -2.4
COc1cccc(NC(=O)CN(C)C(=O)c2cccnc2Sc2ccc(C)c(C)c2)c1 | 1.6 | 1.2
O=C(c1ccc(COc2c(F)c(F)c(F)c(F)c2F)o1)N1CCOCC1 | 0.76 | -0.49
NS(=O)(=O)c1ccc(NC(=O)COC(=O)c2ccc3c(c2)OCCO3)cc1 | 0.32 | -0.88
COCCN(Cc1cc2cc(C)ccc2n2nnnc12)C(=S)Nc1ccc(C)cc1 | 0.33 | 0.45
CCOC(=O)C1(C(C)(C)CC)CC(CSc2nc3ccccc3[nH]2)OC1=O (configuration not stated) | 0.25 | 1.8
CC(C)(C)C(=O)Nc1ccc(C(=O)Nc2cc(NC(=O)c3ccc(NC(=O)C(C)(C)C)cc3)cc(C(=O)O)c2)cc1 | 0.04 | -0.08
CCOC(=O)c1sc(-c2cccc(C(F)(F)F)c2)nc1O | 0.7 | -2.4
CC(=O)Nc1ccc(S(=O)(=O)NC2(C(F)(F)F)NC(=O)N(C3CCCC3)C2=O)cc1 (configuration not stated) | 0.63 | -0.59
OC(COCC1COc2ccccc2O1)CN1CCN(c2ccccc2)CC1 (configuration not stated) | 0.34 | 0.23
CCOc1ccc(NC(=O)CN(C)C(=O)c2ccc(NC3CC3)c([N+](=O)[O-])c2)cc1OCC | 0.91 | 0.33
CCOc1ccc(OCCCC(=O)O)cc1 | 1.6 | -0.03
COCC(C)NC(=O)c1nn(Cc2ccccc2)c(=O)c2ccccc12 (configuration not stated) | 1.2 | 2.3
O=C(NCc1ccc(F)cc1)C1CCC(CNc2c(N3CCOCC3)c(=O)c2=O)CC1 (configuration not stated) | 0.29 | 0.43
O=C(NCc1cccs1)C1CCCN(S(=O)(=O)c2cccs2)C1 (configuration not stated) | 0.34 | 0.05
Cc1ccc(OCC(=O)Nc2ccc(S(=O)(=O)N3CCCC3)cc2)cc1 | 1.3 | -1.2
N#Cc1cc(-c2ccccc2)cnc1Cl | 1.6 | -0.18
COc1ccccc1CN1C2CCCC1CC(NC(=O)/C=C/c1ccccc1)C2 (configuration not stated) | 1.4 | -1.7
Cc1ccc(C)c(S(=O)(=O)Nc2nc(C)c(C(=O)Nc3ccccc3)s2)c1 | 0.28 | -1.8

7 compounds drawn at random from those above:
SMILES | KCNQ2 pot | KCNQ2 pot baseline
Cc1ccc(OCC(=O)Nc2ccc(S(=O)(=O)N3CCCC3)cc2)cc1 | 1.3 | -1.2
CC[C@@H](NS(=O)(=O)c1ccc(C)cc1)C(=O)Oc1ccc2c3c(c(=O)oc2c1)CCC3 | 0.64 | -2.4
C=CCn1c(SCc2ccccc2C#N)nnc1-c1ccccc1O | 0.46 | 0.72
COc1ccccc1CCc1nnc(CCC(=O)N(C)Cc2cccc3ncccc23)o1 | 0.84 | -0.02
O=S(=O)(NC1CCCCC1NS(=O)(=O)c1ccc(F)cc1)c1ccc(F)cc1 (configuration not stated) | 0.66 | -1.1
CCCCn1c(=O)c2ccccc2n2c(=S)[nH]nc12 | 1.5 | 1.3
COC(=O)CNC(=O)Cn1c(=O)n(Cc2ccc(F)cc2)c(=O)c2sccc21 | 0.67 | -1.6

More results follow.
SMILES | KCNQ2 pot | KCNQ2 pot baseline
C=CCNC(=O)C1=NOC(CNC(=O)c2c(-c3ccccc3Cl)noc2C)C1 (configuration not stated) | 0.92 | -0.49
Cc1nc2c(ccc3c([N+](=O)[O-])cccc32)c(C)c1C | 0.5 | 0.2
O=C1c2ccccc2S(=O)(=O)N1CC(O)Cn1c2ccccc2c2ccccc21 (configuration not stated) | 0.95 | 1.9
CCOC(=O)c1cc2cc3ccccc3cc2oc1=O | 0.91 | 0.54
COc1ccc(OCCC(=O)OCc2c(C)noc2C)cc1 | 0.43 | -0.77
CCC(=O)OCc1cc2cccc(C)c2[nH]c1=O | 0.29 | 1.6
Clc1ccc2oc(-c3ccccc3)nc2c1 | 0.05 | -0.01
CCOc1ccc(Oc2nc(NCC(C)C)nc(N(C)C)n2)nn1 | 1.1 | 0.44
Nc1ncc(-c2nnnn2-c2ccc(Cl)cc2)c(-c2ccc(Cl)cc2)n1 | 0.01 | 0.28

Screening data from PubChem BioAssay.

Some of the compounds tested; the hit share may differ from the screen's.
